# Dynein cargo inh: inhibitors of GR-EGFP nuclear translocation, primary screen, dynein cargo transport inhibitor project, imaging, high-content, 3617.4 mouse cells | z-score, hits read low | 220,000 compounds, 0.47% hits | test concentration mostly 20 µM; stimulated with dexamethasone, 1 µM; stronger effect = lower value;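 active means plate z-score of nuclear minus cytoplasmic receptor signal below a set negative limit, without overly bright fluorescence or cell loss, cut at about -3.5 in these data, passing the limit was not always enough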;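 further: z-score of nuclear minus cytoplasmic ring GR-EGFP intensity difference per well; some compounds called inactive have numbers as strong as hits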
#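 Buffer or medium: tet-free medium with charcoal-stripped serum / Also added: dexamethasone agonist, 1.0 µM final, for 30 min / Timing: induction 48 h, compound 1 h, agonist 30 min / Measured by: high-content fluorescence imaging after fixation / Read-out: nuclear-to-cytoplasmic GR-EGFP distribution per well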
# Ins promoter up: insulin promoter activators in MIN6 cells, imaging, high-content screening, mouse beta cells; AID 1625, 2009; MIN6 insulin promoter-GFP reporter; stronger effect = higher value; z-score at 5 µM; 190,000 compounds, 0.3% hits;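 active means z-score above 3 at 5 µM with at least 500 cells counted in the well; inconclusive means wells under 500 cells, flagged as cytotoxic or low count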
# TNAP activation fold: human TNAP enzyme activators, primary screen, biochemical, luminescent, no phosphate acceptor, uHTS (AID 1001); Alkaline phosphatase, tissue-nonspecific isozyme (Homo sapiens); purified TNAP, luminescent activation assay, no phosphate acceptor; higher activation fold means a stronger effect; activation fold at 20 µM, or EC50 in µM where a hit was titrated; 200,000 compounds, 0.03% hits; in the data active means activation fold from about 3, or a potency from the dose series; inactive means the rest, 99 in 100 with activation fold below about 1.6; further: many of its hits are not listed in these tables
# Lipid droplet: inhibitors of hepatocyte lipid droplet formation, primary screen, imaging, high-throughput imaging, BODIPY stain; 240,000 compounds, 0.4% hits; AID 1656, 2009; inhibition, % at 6.5 µM; AML12 mouse hepatocytes, oleate lipid droplets;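 active means lipid droplet intensity inhibited by at least 50%, with more than 500 cells counted; inconclusive means wells with under 300 cells, treated as cytotoxic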
#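 Test system: AML12 hepatocytes (mouse); reagent: oleate loading, 100 µM; dosing: one dose, 6.5 µM compound; incubation: overnight exposure; signal: fluorescence imaging, 20x objective, two fields per well; read-out basis: % inhibition of corrected integrated BODIPY droplet signal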
# Myeloid diff 2: induction of myeloid progenitor differentiation, primary screen, cell-based, flow cytometry, MLPCN library; ER-HoxA9 myeloid progenitors, lysozyme-GFP differentiation; calls only at 10 µM; 360,000 compounds, 1% hits;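 active means normalized GFP-positive differentiation at or above the plate's own cutoff, the solvent-only control mean plus 3 SD; inconclusive means no clear call, values can overlap the other calls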;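 further: cells exposed to compound for four days before flow analysis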
# T cell HTS: modulators of CD8 T cell-vesicle binding, primary screen, mouse 2C CD8+ T cells, flow cytometry; 2C CD8+ T cell-vesicle binding; stronger effect = lower value; calls only at 7 µM; 330,000 compounds, 0.068% hits; AID 2052, 2009;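 active means response, share of CD8 T cells binding vesicles, and their 90th percentile fluorescence all below set limits, cut at about 80% in these data, passing the limit was not always enough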
#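 Read-out – percent CD8+ FL2 mean versus row control · System – murine 2C transgenic CD8+ T lymphocytes · Times – 1.5 h cell–vesicle binding at 37 °C, then 20 min icy labelling · Control set – naked vesicles low, QL9 vesicles with vehicle high · Detection – cytometric PE anti-B7-1 and Alexa647 anti-CD8 signals after 1% paraformaldehyde fixation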
# MT stabilizer: microtubule stabilizers in HeLa cells, primary screen, imaging, high-content imaging; HeLa tubulin immunostaining HCS, 24 h; share of cells brighter than vehicle mean+2SD; % tubulin-high responders, % at 10 µM; 200,000 compounds, 0.83% hits;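 active means plate Z-score above 3 for both tubulin-high and condensed-nucleus cell shares, with cell loss under 80%, at 10 µM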;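 further: anti alpha tubulin signal scored within the nucleus-defined area of each cell; some results filed as inactive read as strong as hits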
# Dynein cargo inh cytoplasmic EGFP: further read-out of Dynein cargo inh, marked with its call; z-score; measured here: cytoplasmic GR-EGFP intensity; stronger effect = higher value
# Dynein cargo inh nuclear GR-EGFP: second read-out of Dynein cargo inh, no call of its own (marks repeat the call); z-score; measured here: nuclear GR-EGFP intensity;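 lower value marks the stronger effect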
# Dynein cargo inh cell count: further read-out of Dynein cargo inh, marked with its call; z-score; measured here: cell count per field
# Ins promoter up cell count: further read-out of Ins promoter up, marked with its call; cell count; measured here: cytotoxicity, nuclei count;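 total cells summed across four imaged fields per well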
# Lipid droplet cells 6.5 µM: further read-out of Lipid droplet, marked with its call; cell count; measured here: cell count, cytotoxicity flag;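 cells counted across two imaged fields per well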
# T cell HTS vesicle-bound %: also measured in T cell HTS; calls as there; double positive events, %; measured here: CD8+ vesicle-bound cell fraction;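 binding gate set so that unloaded-vesicle control wells show 10% double positive cells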
# MT stabilizer Hoechst-high %: recorded beside MT stabilizer, whose call it bears; % Hoechst-high responders; measured here: nuclear condensation Hoechst responders;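 share of cells brighter than vehicle mean plus two SD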
# MT stabilizer cytotoxicity %: second read-out of MT stabilizer, no call of its own (marks repeat the call); toxicity, %; measured here: cytotoxicity by cell density;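 0% = mean cell density of plate MIN control wells and 100% = no cells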
# Myeloid diff 2 GFP+ MAC1+ %: also measured in Myeloid diff 2; calls as there; GFP+ MAC1+ double positive, %; measured here: differentiation confirmed by MAC1 staining
# The depositor's hits bear a star; i = inactive; u = inconclusive; x = no result given.
SMILES,Dynein cargo inh,Dynein cargo inh cytoplasmic EGFP,Dynein cargo inh nuclear GR-EGFP,Dynein cargo inh cell count,Ins promoter up,Ins promoter up cell count,TNAP activation fold,Lipid droplet,Myeloid diff 2,Myeloid diff 2 GFP+ MAC1+ %,T cell HTS,T cell HTS vesicle-bound %,MT stabilizer,MT stabilizer Hoechst-high %,MT stabilizer cytotoxicity %,others
Cc1ccc(-c2nnc(SCC(C)C)n2C)cc1,0.213,-0.0781,0.48,-0.183,-1.29,1279,1.1,x,i,0.8,i,5.6,3.1,2.1,7.0,
CN(C(=O)CSc1ncccc1C(=O)O)c1ccccc1,-0.784,-0.191,-0.141,0.162,-0.25,1407,1.1,x,i,9.2,i,31.1,4.6,2.0,7.3,
Cc1ccc(C(=O)c2cc([N+](=O)[O-])ccc2N2CCOCC2)c(C)c1,-0.397,-0.18,-0.349,0.19,0.26,910,1,x,u,x,i,55.2,6.5,40.1,36.1,
CC(C)Nc1cc(N2CCCC2)ccc1[N+](=O)[O-],0.00263,0.15,0.536,0.652,0.27,1490,0.8,x,i,2.7,i,31.8,2.5,2.1,8.9,
O=C1CC(N2CCN(c3nc4ccccc4s3)CC2)C(=O)N1c1cccc(F)c1 (stereo not drawn),-1.59,-0.175,-0.551,0.774,-0.07,842,1.1,-2.3,i,0.4,i,31.4,1.7,1.3,4.7,Lipid droplet cells 6.5 µM=811
Cc1sc2c(c1C)CN(C(C)(C)C)CN2C(=O)c1ccccc1,0.035,-0.227,0.138,0.903,0.35,827,1,-0.3,i,0.5,i,61.1,4.0,2.5,0.9,Lipid droplet cells 6.5 µM=738
COc1ccc(C2C(C(=O)N3CCOCC3)=C(C)NC3=C2C(=O)CC(C)(C)C3)c(OC)c1 (stereo not drawn),-0.233,-0.209,-0.103,0.0865,0.33,1577,1.1,x,i,1.1,i,15.3,2.1,2.4,9.1,
CCC(C)C(=O)Nc1nc(-c2ccc3c(c2)NC(=O)CO3)cs1 (stereo not drawn),-1.09,-0.197,-1.25,-0.278,-0.02,1533,1,x,i,0.3,i,32.7,3.1,1.6,5.9,
COC(=O)c1cc(Cl)c(NC(=O)c2cc3ccccc3o2)cc1OC,0.596,-0.149,0.546,-1.06,0.23,1442,0.9,x,i,1.7,i,60.6,1.5,1.4,6.3,
Cc1cc(=O)oc(C)c1C(=O)N1CCCc2ccccc21,1.12,-0.229,0.596,-0.57,0.38,1579,1.1,x,i,0.6,i,48.8,4.7,1.4,5.7,
COc1ccc2cc(C(=O)Nc3ccc(F)cc3)sc(=O)c2c1OC,-0.193,-0.205,0.378,0.327,0.25,1551,1,x,i,0.8,i,53.7,2.1,3.5,8.3,
COc1ccccc1NC(=O)C1=C(C)Nc2nnnn2C1c1cc(Br)ccc1OC (stereo not drawn),-0.223,-0.403,-0.322,1.77,-0.03,1566,1.1,x,i,3.5,i,56.9,3.9,2.8,7.2,
O=C(NCc1ccccc1C(F)(F)F)C1CC(c2ccccc2[N+](=O)[O-])=NO1 (stereo not drawn),-0.0675,-0.142,0.144,-0.515,-0.23,1545,1.1,x,i,2.5,i,23.1,1.6,1.1,5.8,
COc1cccc(NC(=O)c2oc3ccccc3c2NC(C)=O)c1,2.51,-0.355,0.807,-1.11,0.19,1618,1,x,i,6.8,i,36.0,6.6,1.1,2.6,
CCCCCCCCC[n+]1cccc2c3ccccc3ccc21,1.36,-0.107,1.5,-2.42,u,x,1,x,x,x,i,2.7,2.5,3.2,11.8,
O=c1c(C=Nc2ccc(Cl)cc2)c[nH]n1-c1cccc(Cl)n1,0.188,0.621,-0.145,0.444,-0.1,1432,1,x,i,1.0,i,42.8,0.5,2.3,10.4,
CCCCN1C(=O)/C(=c2\sc3nc(=O)c(-c4ccccc4)nn3c2=O)c2ccccc21,-0.32,0.533,-0.0721,-0.0441,-0.15,1684,1.1,x,i,0.4,i,42.9,2.1,2.0,7.7,
Cc1c(C(=O)NC(C)CCc2ccccc2)cccc1[N+](=O)[O-] (stereo not drawn),-0.596,-0.2,-0.356,0.967,0.82,1496,1.1,x,i,1.0,i,49.3,1.3,1.2,6.8,
CCc1cc(C(c2ccc(F)cc2)N2CCOCC2)c(NC(=O)c2ccccc2)s1 (stereo not drawn),-0.313,-0.209,0.455,0.152,-0.08,1611,1,x,i,2.3,i,28.4,3.4,1.7,1.5,
Cc1ccnc(NS(=O)(=O)c2ccc(NC(=O)C3CCCNC3=O)cc2)n1 (stereo not drawn),0.0146,-0.197,0.0373,-0.154,-0.36,1595,1.1,x,i,0.4,i,42.5,1.0,1.7,10.9,
COc1ccc(C(=O)NCS(=O)(=O)c2ccc(C)cc2)cc1,-1.32,-0.276,-1.41,0.462,0.49,1698,1.1,x,i,1.1,i,54.3,2.7,1.7,2.1,
Cc1cccc(N(C(=O)Cc2cccs2)C(C(=O)NC2CCCC2)c2ccsc2)c1 (stereo not drawn),-0.589,0.18,-0.386,0.939,-0.35,1640,1.1,x,i,2.3,x,x,1.4,1.7,8.2,
CCC(=O)Nc1ccc(C(=O)Nc2ccc3c(c2)OCO3)cc1,0.409,-0.202,0.169,-0.567,1.38,1569,1.1,x,x,x,i,18.4,1.7,2.3,9.5,
CCNc1nc(NCC)nc(C(=O)Nc2ccccc2)n1,-0.393,-0.168,-0.896,-0.639,-0.51,1496,1.1,x,i,1.5,i,34.8,2.1,2.4,0.1,
COc1ccc(N(C)C(=O)c2ccc3nc(-c4ccccc4)c(-c4ccccc4)nc3c2)cc1,-1.19,-0.103,-0.6,1.01,-0.23,1577,1,x,i,0.8,i,56.4,24.5*,23.0*,37.3*,
NC(=O)c1ccc(NC(=O)C2CCCO2)cc1 (stereo not drawn),-0.28,-0.00582,-0.625,-0.544,-0.61,1438,1.1,x,i,1.9,i,40.1,2.7,1.6,1.6,
CCC(C)(C(=O)NC1CCCCC1)N(Cc1ccco1)C(=O)Cc1cccs1 (stereo not drawn),0.571,-0.231,0.404,0.669,0.26,1574,0.8,x,i,1.4,i,19.9,3.3,2.1,7.3,
CC(C)CNC(=O)C(=O)N/N=C/c1cccs1,-0.0717,-0.194,0.257,0.214,-0.11,1552,1.1,x,i,1.9,i,11.6,3.1,2.8,4.6,
Oc1ccc(/C=N/NC(=S)NCc2ccco2)cc1,0.274,-0.251,0.305,0.935,0.43,1539,1,x,i,0.9,i,53.9,4.6,1.7,5.9,
COc1cc(-c2nnc(SCC3(c4ccc(Br)cc4)OCCO3)o2)cc(OC)c1OC,-0.00185,-0.198,0.625,0.314,-0.34,1421,1,x,i,1.3,i,14.9,1.8,1.4,5.6,
CCOc1ccc(NC(=O)N(CCN2CCOCC2)Cc2ccc3c(c2)CCCN3CC)cc1,-0.903,-0.38,-0.688,1.48,-0.06,1514,1,x,i,1.1,i,36.5,2.4,2.1,8.9,
CC(=O)Nc1ccc(-c2ccccc2)s1,-0.887,-0.242,-0.381,0.39,-0.34,1619,0.9,x,i,1.1,i,1.7,3.8,2.1,5.5,
Cc1cc(/C=C(/C#N)C(=O)Nc2ccccc2)c(C)n1-c1cccnc1,-0.138,-0.221,0.0926,0.0422,0.38,1161,1.1,x,i,0.2,i,17.1,1.4,2.0,8.9,
Cc1nc2c(C(=O)NCCC(C)C)c[nH]n2c(=O)c1Cc1ccccc1F,-0.483,-0.21,-0.315,0.444,0.13,1559,1,x,i,12.4,i,32.1,1.7,2.0,3.9,
O=S(=O)(c1ccccc1)n1ccc2cccnc21,0.00803,-0.209,0.142,0.789,-0.53,1529,1,x,i,0.8,i,44.8,2.4,1.7,6.8,
CCOC(=O)c1sc(-c2ccc(Br)cc2)cc1N,0.372,-0.16,1.13,-0.524,-0.54,1615,0.9,x,i,5.6,i,33.3,2.0,2.1,2.4,
CCOC(=O)C1=C(C)N=C2SC(C(=O)OC)=CC(=O)N2C1c1cccc(OC)c1 (stereo not drawn),-0.787,-0.151,-0.567,0.575,0.66,1454,1,x,i,7.0,i,49.5,1.1,1.4,9.8,
COc1ccccc1-c1nnc(SCc2nc3ccccc3s2)n1C,-0.389,-0.163,0.543,1.06,0.72,1463,1.1,x,i,15.0,i,0.5,3.1,2.8,10.5,
Cc1ccc(-c2cc(N)n(-c3ccc(C)cc3)n2)cc1,-0.258,-0.19,0.321,1.13,-0.33,1395,1.1,x,i,1.0,i,34.3,3.4,1.7,8.0,
CCC(C)C1NC(=S)N(Cc2ccccc2)C1=O (stereo not drawn),0.398,-0.187,0.185,-0.835,-0.11,1546,1.1,x,i,0.6,i,29.8,2.1,1.2,1.6,
CCSc1cc(N2CCCC2)nc(-c2ccc(F)cc2)n1,0.3,-0.234,0.649,1.04,-0.7,1550,1,x,x,x,i,36.1,2.4,2.3,6.5,

# Three compounds already listed, ordered by count of non-hydrogen atoms, low to high.
SMILES,Dynein cargo inh,Dynein cargo inh cytoplasmic EGFP,Dynein cargo inh nuclear GR-EGFP,Dynein cargo inh cell count,Ins promoter up,Ins promoter up cell count,TNAP activation fold,Lipid droplet,Myeloid diff 2,Myeloid diff 2 GFP+ MAC1+ %,T cell HTS,T cell HTS vesicle-bound %,MT stabilizer,MT stabilizer Hoechst-high %,MT stabilizer cytotoxicity %,others
Cc1ccc(-c2cc(N)n(-c3ccc(C)cc3)n2)cc1,-0.258,-0.19,0.321,1.13,-0.33,1395,1.1,x,i,1.0,i,34.3,3.4,1.7,8.0,
CCSc1cc(N2CCCC2)nc(-c2ccc(F)cc2)n1,0.3,-0.234,0.649,1.04,-0.7,1550,1,x,x,x,i,36.1,2.4,2.3,6.5,
COc1ccccc1-c1nnc(SCc2nc3ccccc3s2)n1C,-0.389,-0.163,0.543,1.06,0.72,1463,1.1,x,i,15.0,i,0.5,3.1,2.8,10.5,

# Source: PubChem (several laboratories)

# A portion of the library. The share of hits here may be higher or lower than overall.
